Anthrax LT inh = blocks cellular internalization of anthrax lethal toxin | Cells, anthrax lethal toxin internalization, FRET ratio (460/530) | Potency, µM (highest dose often 40 µM), inactives show at the top dose activity change, negative = inhibition, most hits filed as inhibitors | 0.67% of 70,000 active | AID 912; active = well fitted falling ratio curve with the 530 nm signal flat; inconclusive = other ratio curves, or a change in one channel alone; inactive = flat curves in the ratio and both channels; the % refers to the ratio; further: on the % scale 0 is the no-effect control and ±100 the full control effect; nearly all actives have a fitted effect of over 50% in size; tested in ME-180 cells; beta-lactamase reporter
SmPrx2 inh = inhibitors of Schistosoma mansoni peroxiredoxin 2; S. mansoni Prx2 activity coupled to TGR/GSH (TGR is thioredoxin glutathione reductase), NADPH fluorescence loss, qHTS; some inactives read as strong as hits; 0.07% of 65,000 active; Potency, µM; AID 448; active means full or partial inhibition curve with a strong effect at the top dose; inconclusive means weaker partial or single-point curve; inactive means no accepted curve; further: series up to 57 µM; many of its hits are not listed in these tables
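Prx2 activity was followed as the loss of NADPH fluorescence (ex 365/em 450 nm), read every 30 sec for 8 min after H2O2 start. The enzyme mix (50 nM Prx2, 25 nM TGR, GSH, NADPH; pH 7.4 phosphate buffer) was incubated with compound for 15 min at room temperature first.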
* hit, by the source's call; ? = inconclusive; / = not tested or not shown; & = joins results of further samples; [ ] = remark or other dose. Potency means the concentration at half of the fitted maximal effect.

| SMILES | Anthrax LT inh | SmPrx2 inh |
| --- | --- | --- |
| C[Si](C)(C)C#Cc1ccccc1NC(=S)Nc1ccccc1 | -25% | >57 |
| COc1ccc(OC)c(S(=O)(=O)Nc2ccccc2C)c1 | -2% | >57 |
| CCN(CC)c1ccc2cc(-c3nc4ccccc4n3C)c(=O)oc2c1 | ? | / |
| CC(=O)N1CCc2cc(S(=O)(=O)NC(C(=O)Nc3nc(C)cs3)C(C)C)ccc21 (centres undefined) | 4% | >57 |
| COc1ccc(CNC(=O)CN(C(=O)c2ccc(CN3CCOCC3)o2)C2CCCC2)cc1 | 8% | >57 |
| Cc1ccc(Cn2c(=O)c3ccccc3n3c(CCC(=O)O)nnc23)cc1 | 11% | >57 |
| O=C(O)CCCc1nc2ccccc2s1 | / | >57 |
| O=C(Nc1cccc2ccccc12)c1ccc(Br)o1 | -7% | >57 |
| CCc1ccccc1NC(=O)CSc1nnc([C@H](CCSC)NC(=O)OC(C)(C)C)o1 | -14% | >57 |
| Cc1cc(N(C(=O)c2ccco2)C(C(=O)NC2CCCCC2)c2ccccc2)ccc1-n1cnnn1 (centres undefined) | 14% | >57 |
| O=C(CCSc1nc(-c2ccco2)cc(C(F)(F)F)n1)NCCc1ccccc1 | -14% | / |
| COc1ccccc1CNc1nc(-c2c(C)noc2C)nc2ccccc12 | ? | >57 |
| Cc1ccc(CNC(=O)CCS(=O)(=O)c2ccc(Br)s2)o1 | -10% | >57 |
| Cc1ccc(Nc2nc(C)cc(C)n2)c(Br)c1 | -1% | >57 |
| CCN1CCN(C(=O)C2=C(C(=O)O)CCCC2)CC1 | -3% | >57 |
| COc1cc(N2C(=O)NC3CC2(C)Oc2ccccc23)cc(OC)c1OC (centres undefined) | 1% | >57 |
| CCOC(=O)N1CCN(S(=O)(=O)c2cc(Cl)c(OC)cc2Cl)CC1 | 11% | >57 |
| O=C(Nc1nnc(C2CCCCC2)s1)c1ccc(Br)s1 | 1% | >57 |
| O=C(O)Cn1nc(-c2ccccc2)c2ccccc21 | -6% | >57 |
| O=C(Nc1ccc2oc(-c3ccccc3Cl)nc2c1)c1cncc(Br)c1 | -8% | >57 |
| CCOC(=O)c1ccc(NC(=O)CN2CCN(c3ccccc3)CC2)cc1 | 3% | >57 |
| CCOC(=O)N1CCN(CC(=O)c2ccc3c(c2)CCN3C(C)=O)CC1 | 11% | >57 |
| COc1ccc(C2=CC(c3ccc(F)cc3)n3nnnc3N2)cc1 (centres undefined) | -6% | / |
| Cc1cc(NC(=O)CSc2nnc(-c3ccco3)o2)no1 | 8% | >57 |
| CCCC(=O)NCCCc1nc2ccccc2n1C | -1% | >57 |
| CCNc1ncc2ncc(=O)n(C[C@H]3CCCO3)c2n1 | -7% | >57 |
| N#Cc1c(N)nc2c(c1-c1ccco1)CCCCC2 | -10% | >57 |
| N#Cc1cccc(-c2cncnc2NCCc2cnc[nH]2)c1 | -32% | >57 |
| O=C(COC(=O)c1ccccc1F)c1ccc(-n2nncc2-c2ccco2)cc1 | 11% | >57 |
| Cc1cc(NC(=O)Cn2nc3c(cc2=O)CCCC3)ccc1Br | -15% | >57 |

Shown field by field: part of the list above.
> COc1ccc(C2=CC(c3ccc(F)cc3)n3nnnc3N2)cc1 (centres undefined)
- Anthrax LT inh: -6%
- SmPrx2 inh: /
> Cc1cc(NC(=O)CSc2nnc(-c3ccco3)o2)no1
- Anthrax LT inh: 8%
- SmPrx2 inh: >57
> CCCC(=O)NCCCc1nc2ccccc2n1C
- Anthrax LT inh: -1%
- SmPrx2 inh: >57
> CCNc1ncc2ncc(=O)n(C[C@H]3CCCO3)c2n1
- Anthrax LT inh: -7%
- SmPrx2 inh: >57

Other results:
| SMILES | Anthrax LT inh | SmPrx2 inh |
| --- | --- | --- |
| O=c1oc2c3c(nn2c2ccccc12)CCCC3 | -6% | / |
| Oc1ccc(Cl)cc1C=Nc1cnc2ccccc2c1 | -3%[8 µM] | >57 |
| COc1cccc(-n2nnnc2SCC(=O)N2CCCc3ccccc32)c1 | -23% | >57 |
| COc1ccc(Oc2ccc(S(=O)(=O)N3CCCCC3)cc2S(=O)(=O)N2CCCCC2)cc1 | ? | / |
| CC(C)OCC(O)CSc1ccccn1 (centres undefined) | 4% | / |
| CS(=O)(=O)c1ccc(N2CCOCC2)c(S(C)(=O)=O)c1 | 0% | >57 |
| Cc1ccc(-c2nnn(CCC(=O)NC3CCCC3)n2)cc1 | -7% | / |
| Cc1cccc(N2CCN(c3nnnn3-c3ccccc3)CC2C)c1 (centres undefined) | -19% | >57 |
| O=C(COc1ccc(Cl)cc1)NCc1nnc(SCC(=O)N2CCCc3ccccc32)o1 | -2% | >57 |
| O=S(=O)(Nc1ccc(-c2nc3ccccc3o2)cc1)c1ccccc1 | -15% | >57 |
| CCc1nc(C)c(-c2ccccc2)c(=O)[nH]1 | -6% | >57 |
| Cc1ccc(CN(CC2CCCO2)C(=O)CN2C(=O)C(C(C)C)Oc3ccccc32)o1 (centres undefined) | -6% | >57 |
| COC(=O)c1c(NC(=O)c2ccco2)sc2c1C(C(=O)OC)CC2 (centres undefined) | -10% | >57 |
| O=C(Cn1c(=O)sc2ccccc21)Nc1ccc(S(=O)(=O)N2CCCCC2)cc1 | -2% | >57 |
| Cc1nc2ccccc2nc1OCC(=O)Nc1cc(C(F)(F)F)ccc1N1CCOCC1 | ? | >57 |
| Cn1c(=O)oc2cc(S(=O)(=O)NCCN3CCCCCC3)ccc21 | 10% | >57 |
| N#CCCCSc1nnc(-c2ccc(Cl)cc2)n1-c1ccccc1 | -13% | >57 |
| CCNc1ncc2nc(-c3ccc(F)cc3)c(=O)n(-c3ccccc3)c2n1 | ? | >57 |
| COC(=O)c1ccc(C(NC(=O)OCc2ccccc2)/C(F)=C/[C@@H](C)C(=O)NCc2nc3ccccc3s2)cc1 (some centres undefined) | -10% | / |
| c1csc(CSc2nnc3sc4ccccc4n23)c1 | 17% | >57 |
| COc1ccc(Nc2nc3ccccc3c(=O)s2)c(OC)c1 | 16% | >57 |
| Cc1c(-c2ccc(O)cc2)nn(-c2ccc(O)cc2)c1-c1ccc(OCCN2CCCCC2)cc1 | 16µM* | >57 |
| COc1cccc(NC(=O)C2C3C=CC4(O3)C2C(=O)N(C2CC2)C4C(=O)NC2CCCCC2C)c1 (centres undefined) | 12% | >57 |
| OC1(c2ccccc2)C/C(=N\n2cnnc2)C=C1c1ccccc1 (centres undefined) | -4% | >57 |
| CCOC(=O)N1CCN(C(=O)Cn2ncc3c2-c2ccccc2OC3)CC1 | -5% | >57 |
| O=C(Cn1c(-c2ccccn2)nc2ccccc21)NCCN1CCOCC1 | -6% | >57 |
| Cc1ccc2c(c1)c1cccc3c1n2CCN3CCC(N)=O | ? | / |
| CCC(NS(=O)(=O)c1ccc(OC)cc1)C(=O)O (centres undefined) | / | >57 |
| NC1=NC(c2ccc(Cl)cc2)n2c(nc3ccccc32)N1 (centres undefined) | -1% | >57 |
| CCOc1ccc2nc(SCC(=O)N(C)C3CCS(=O)(=O)C3)[nH]c2c1 (centres undefined) | ? | >57 |
| COc1cccc(OCC(=O)N2CCN(C)CC2)c1 | -2% | >57 |
| COC(=O)C1ON2OC(C(=O)OC)C(C(=O)OC)C2C1CC(C)=O (centres undefined) | -10% | >57 |
| COC(=O)c1ccc(Oc2cc(C)nc(SC)n2)cc1 | -24% | >57 |
| CCN(CC(=O)NC1CCCCCC1)S(=O)(=O)c1ccccc1 | -16% | >57 |
| CSCCC(NC(=O)c1c(C)oc2c1CCCC2)C(=O)O (centres undefined) | -4% | / |
| CCOC(=O)c1cnn(-c2nc3sc4c(c3c(=O)[nH]2)CCCC4)c1N | -6% | >57 |
| C=C(C)C1Cc2c(C)nn(-c3ccccc3)c2C1 (centres undefined) | / | >57 |
| CCCC(=O)Nc1ccc(C(=O)NCC(=O)OCC)cc1 | ? | >57 |
| Cc1c(NS(=O)(=O)c2ccc3[nH]c(=O)[nH]c3c2)c(=O)n(-c2ccccc2)n1C | ? | >57 |
| COc1ccc(S(=O)(=O)N2CCSC2c2ccccc2)cc1 (centres undefined) | -17% | >57 |

Part of the list above in order of heavy-atom count, highest first.
| SMILES | Anthrax LT inh | SmPrx2 inh |
| --- | --- | --- |
| Cc1c(NS(=O)(=O)c2ccc3[nH]c(=O)[nH]c3c2)c(=O)n(-c2ccccc2)n1C | ? | >57 |
| CCOC(=O)c1cnn(-c2nc3sc4c(c3c(=O)[nH]2)CCCC4)c1N | -6% | >57 |
| COc1ccc(S(=O)(=O)N2CCSC2c2ccccc2)cc1 (centres undefined) | -17% | >57 |

(list continues)
| SMILES | Anthrax LT inh | SmPrx2 inh |
| --- | --- | --- |
| COc1ccc(OC)c(S(=O)(=O)Nc2ccccc2F)c1 | 11% | >57 |
| CCC(Sc1ccc2nnc(-c3ccc(OC)c(OC)c3)n2n1)C(=O)O (centres undefined) | 6% | >57 |
| CCC(c1c(C)[nH]oc1=O)c1c(C)[nH]oc1=O | 0% | >57 |
| CCOc1cc(C(=O)Nc2cc(=O)n(C)c(=O)n2C)cc(OCC)c1OCC | 0% | / |
| CCC1Oc2ccccc2N(CC(=O)NCCCN2CCN(Cc3ccccc3)CC2)C1=O (centres undefined) | -9% | >57 |
| CCOc1ccc(Br)cc1S(=O)(=O)Nc1ccccc1N1CCOCC1 | -18% | >57 |
| CO[C@@H]1/C=C\O[C@@]2(C)Oc3c(C)c(O)c4c(c3C2=O)C(=N[C@H]2CC[C@H](O)O[C@@H]2C)C=C(NC(=O)/C(C)=C\C(=O)[C@@H]2C[C@@H]2[C@@H](O)[C@H](C)[C@@H](O)[C@H](C)[C@H](OC(C)=O)[C@@H]1C)C4=O | 14%[8 µM] | >57 |
| COc1ccc(CC2NCCC3(O)CCCCC23)cc1 (centres undefined) | -2% | >57 |
| CCN(CC)CCn1c(=S)[nH]c2cc(Cl)ccc2c1=O | / | >57 |
| CN(C)c1ccc(C(c2ccc(N(C)C)cc2)c2ccc([N+](=O)[O-])cc2)cc1 | ? | >57 |
| CCn1c(NCc2c[nH]c3ccccc23)nc2ccccc21 | -20% | >57 |
| COC(=O)c1sc2ccccc2c1C(=O)OC | -6% | >57 |
| Cc1cc(C)n2c(SCC(=O)NCc3ccco3)nnc2n1 | ? | >57 |
| CC(NC(=O)COc1ccccc1)C(c1ccccc1)N1CCN(C)CC1 (centres undefined) | -10% | >57 |
| CC(C)CCNc1nc2c(c(=O)[nH]c(=O)n2C)n1CC(O)COC(C)C (centres undefined) | -3% | >57 |
| CCOC(=O)c1c(C)[nH]c(C)c1C(=O)COC(=O)CCOc1ccccc1OC | -10% | >57 |
| COC(=O)c1c(NC(=O)C2CC=CCC2C(=O)O)sc(C(N)=O)c1C (centres undefined) | -19% | >57 |
| C[C@H](O)[C@H](O)[C@@H](O)c1cnc2nc(N)[nH]c(=O)c2n1 | ? | >57 |
| Cc1cc(-c2csc(NC(=O)c3ccc(=O)n(C)n3)n2)c(C)n1CC1CCCO1 (centres undefined) | 27% | >57 |
| CN(C)C(=O)c1ccc(-c2nccc(Nc3ccc(F)cc3)n2)cc1 | 2% | >57 |
| CCCc1cc(C(=O)N2CCN(C(c3ccccc3)c3ccccc3)CC2)no1 | ? | >57 |
| O=C(CCN1C(=O)COc2ccccc21)NCCN1CCN(c2cccc(Cl)c2)CC1 | 6% | >57 |
| N#CCCN(Cc1cccnc1)C(=O)c1ccc(S(=O)(=O)N2CCOCC2)cc1 | 7% | >57 |
| O=c1c2cc(N3CCOCC3)ccc2[nH]c(=S)n1Cc1ccco1 | -12% | >57 |
| O=C(CSc1nnc(-c2ccco2)n1-c1ccccc1)N1CCN(C(=O)c2ccco2)CC1 | 13% | >57 |
| CCn1ccc(C(=O)Oc2ccc(C(C)C)cc2)n1 | ? | >57 |
| CCc1c(C)nc(N)n2c(SCC(=O)N3CCCC(C)C3)nnc12 (centres undefined) | -9% | >57 |
| Cc1noc(C)c1S(=O)(=O)Nc1ccc(C(=O)O)cc1 | -19% | >57 |
| Cc1ccc(Nc2cc(C)nn2-c2nc(C)cc(=O)[nH]2)cc1 | 23% | >57 |
| COc1ccc(C2C(C(=O)N3CCCCC3)c3ccccc3C(=O)N2C)cc1 (centres undefined) | 7% | >57 |
| COC(=O)c1[nH]c2ccc(C)cc2c1NC(=O)C1=COCCO1 | -2% | / |
| CCN1C(=O)c2ccccc2Sc2ccc(C(=O)NCCN3CCOCC3)cc21 | 13% | >57 |
| Cc1sc2ncn(CC(=O)N3CCC4(CC3)OCCO4)c(=O)c2c1C | 17% | >57 |
| CN1C(=O)c2oc3ccccc3c(=O)c2C1c1ccncc1 (centres undefined) | -11% | >57 |
| Cc1ccc(-n2ncc(C(=O)N3CCc4ccccc4C3)c2NC(=O)c2ccco2)cc1C | 3% | >57 |
| CC1CC(C)CN(CC(C)(C)NS(=O)(=O)c2ccccc2)C1 (centres undefined) | -13% | >57 |
| O=C1C2CCCN2C(c2ccccc2)N1c1cccc(Cl)c1 (centres undefined) | -8% | >57 |
| O=C(CN1CCN(CCOCCO)CC1)N1c2ccccc2Sc2ccc(Cl)cc21 | 5% | >57 |
| COc1ccc(CNC(=O)/C=C\c2ccc3[nH]cc(CCN(C)C)c3c2)cc1 | ? | >57&>57 |
| O=C(CN1CCN(c2ccc(Cl)cc2)CC1)Nc1ccc(F)cc1 | 5% | >57 |
| CC1CC(C)CN(CCCNC(=O)C2CCN(S(=O)(=O)N3CCCCC3)CC2)C1 (centres undefined) | 2% | >57 |
| O=C(NCc1ccco1)c1csc2c1CCCCC2 | -4% | >57 |
| CC(C)CN1CC2(CCN(C(=O)c3cccc(F)c3)CC2)C1 | -4% | >57 |
| Cc1ccc2c(CC(=O)OC3CCOC3=O)coc2c1 (centres undefined) | -5% | >57 |

A portion of the library. The share of hits here may be higher or lower than overall.
